PINK1 modulator = modulators of PINK1 expression; 0.2% of 410,000 active; Potency, µM (top dose mostly 76.6 µM), inactives show top-dose activation (PINK1 increase), hits mostly activators; PINK1 immunofluorescence, high-content cytometry, 24 h; AID 624263; active = well fitted activation curve with a large enough effect; inconclusive = small, poorly fitted or top-dose-only effect; inactive = flat fitted curve, though single readings scatter; cell line not stated here;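 note: potency is the fitted concentration of half-maximal effect; % of control where 0% means no effect; nearly all actives have a fitted effect of over 65% in size; a mitochondrial uncoupler was the plate control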
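Cells are seeded, rested 12 hours, then given compound at five concentrations or DMSO for 24 hours. After fixation, blocking and antibody staining, PINK1 amount and mitochondrial localization are scored; CCCP serves as control.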
D2 agonist = agonists of human D2 dopamine receptor (beta-arrestin); 0.084% of 360,000 active; P14416; DiscoveRx PathHunter D2 beta-arrestin, luminescence, 90 min; 100% = 57 uM dopamine signal; activation, % (concentration not given with the values); in the data active = activation above about 40%; inconclusive = about 15% to 40%; inactive = below about 15%; note: compound concentration not given in the record; the text of the record calls up to 30% inactive
Target sequence (P14416 whole entry, looked up): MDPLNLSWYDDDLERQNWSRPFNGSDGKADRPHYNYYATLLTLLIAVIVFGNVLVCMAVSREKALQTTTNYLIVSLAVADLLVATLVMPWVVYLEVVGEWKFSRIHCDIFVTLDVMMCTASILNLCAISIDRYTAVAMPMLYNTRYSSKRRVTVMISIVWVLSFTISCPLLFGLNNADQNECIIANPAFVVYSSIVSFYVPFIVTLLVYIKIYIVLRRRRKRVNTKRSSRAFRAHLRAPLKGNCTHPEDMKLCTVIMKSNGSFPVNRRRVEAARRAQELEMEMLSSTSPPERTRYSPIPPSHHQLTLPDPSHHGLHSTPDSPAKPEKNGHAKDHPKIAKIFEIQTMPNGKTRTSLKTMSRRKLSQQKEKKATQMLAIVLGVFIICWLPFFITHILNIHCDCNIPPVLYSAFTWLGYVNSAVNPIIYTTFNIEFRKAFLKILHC
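Agonist mode: compounds alone added to overnight-plated D2 PathHunter cells for 90 min at 37 C, with 57 uM final dopamine (EC100) defining full response. Beta-arrestin recruitment detected by chemiluminescent reagent, read after 1 h at ambient temperature.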
Six1-Eya2 blk = blocks human Six1 binding to Eya2. Q15475+O00167. AlphaScreen GST-Six1/His-Eya2 binding, biochemical; active compounds read low; control for the full effect not named in the record. activity change, % (concentration not given with the values). 0.56% of 360,000 active; in the data active = activity change below about -65%; inconclusive = about -30% to -65%; inactive = above about -30%; note: % is set by controls: 0 for no effect and ±100 for the full control effect
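AlphaScreen luminescence read after one hour at 37 °C in darkness. Pin-transferred compounds met GST-Six1 and His-Eya2 protein (5X stock 250 nM/500 nM) plus glutathione donor and Ni-chelate acceptor beads (5X, 50 ug/mL).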
TRPML1 agonist = human mucolipin-1 channel agonism | Q9GZU1 | activation, % (test concentration not listed) | 0.12% of 410,000 active | TRPML1-expressing cells, Ca2+ dye fluorescence, FDSS; host cell line not named in the record; reference of the full effect not given here; in the data active = activation above about 50%; inconclusive = about 30% to 50%; inactive = below about 30%; note: 0% is about no effect; the text of the record puts the active cut at 80%
Target sequence (Q9GZU1 whole entry, looked up): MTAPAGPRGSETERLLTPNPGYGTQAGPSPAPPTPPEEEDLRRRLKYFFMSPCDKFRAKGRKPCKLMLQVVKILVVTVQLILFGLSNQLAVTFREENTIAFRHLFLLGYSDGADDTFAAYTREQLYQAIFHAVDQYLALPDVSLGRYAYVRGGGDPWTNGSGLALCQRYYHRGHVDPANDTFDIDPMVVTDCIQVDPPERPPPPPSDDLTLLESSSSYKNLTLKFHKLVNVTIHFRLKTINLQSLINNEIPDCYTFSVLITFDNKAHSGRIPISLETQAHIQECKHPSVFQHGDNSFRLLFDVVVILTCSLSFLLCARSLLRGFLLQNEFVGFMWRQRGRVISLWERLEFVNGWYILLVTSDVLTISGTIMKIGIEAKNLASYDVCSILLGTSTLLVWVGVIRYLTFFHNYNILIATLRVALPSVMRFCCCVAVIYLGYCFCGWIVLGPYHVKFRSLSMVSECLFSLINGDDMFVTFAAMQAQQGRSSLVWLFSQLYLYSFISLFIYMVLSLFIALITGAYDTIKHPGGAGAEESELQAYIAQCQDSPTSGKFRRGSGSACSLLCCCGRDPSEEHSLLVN
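Calcium fluorescence on an FDSS kinetic reader gave the read-out. Tet-induced TRPML1-DL cells were plated overnight, dye-loaded (Ca8 with quencher, 45-90 min, room temperature, dark), then read 110 s after compound addition, and again 110 s after 4uM final 54-4 (EC80).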
TRPML1 blocker = human mucolipin-1 channel inhibition. Q9GZU1. TRPML1-inducible cells, Ca2+ dye fluorescence, FDSS; active compounds read low; inhibition of EC80 agonist-evoked calcium signal. activity change, negative = inhibition, % (test concentration not listed). 0.02% of 390,000 active; in the data active means activity change below about -50%; inconclusive means about -30% to -50%; inactive means above about -30%;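 note: stimulus is agonist 54-4 at its EC80 concentration; % is set by controls: 0 for no effect and ±100 for the full control effect; compound concentration not given in the record; the text of the record puts the active cut at -80%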
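TRPML1-DL cells, Tet-induced overnight (~16 h, 37 °C) at 1,500 cells/well, were loaded with Ca8 no-wash dye plus quencher for 45-90 min at room temperature. Compounds were pinned during FDSS kinetic reading; agonist 54-4 at EC80 (4 uM final) then added.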
CtBP-E1A inh = blocks the CtBP interaction with E1A; AlphaScreen GST-E1A/His-CtBP binding, 1536-well; active compounds read low; control for the full effect not named in the record; 0.49% of 340,000 active; activity change, % (no concentration beside the values); AID 651724; in the data active means activity change below about -65%; inconclusive means about -30% to -65%; inactive means above about -30%; note: % is set by controls: 0 for no effect and ±100 for the full control effect
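Homogeneous bead-based format: GST-tagged E1A captured on glutathione donor beads, His-tagged CtBP on nickel acceptor beads; compounds precede bead addition by 2 h at 37 °C.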
* marks the source's active call; other numbers are inactive results; ? = inconclusive; / = no result given; & = joins results of further samples; [ ] = another dose, or the depositor's remark.

compound	Six1-Eya2 blk	D2 agonist	TRPML1 blocker	CtBP-E1A inh	TRPML1 agonist	PINK1 modulator
Cc1c(C(=O)NC2CCCCC2C)oc2ccccc12 (stereo unspecified)	3.1	?	-13.8	12.2	0.7	0.0%
Cc1ccc(OC(=O)c2ccccc2P(=O)(O)O)cc1	-1.1	-1.4	0.1	-7.2	0.3	/
O=c1ccc(-c2ccccc2)nn1Cc1ccc(F)cc1Cl	23.6	-2.6	9.0&-2.1	13.5	2.7&-0.8	0.6%&3.3%
COc1ccc(CN2CCN(Cc3ccccc3F)CC2)c(OC)c1	-2.9	-3.7	-0.2	3.4	-1.4	-0.4%
O=C(CCC(=O)Nc1ccc(Br)cc1)N/N=C/c1ccc(F)cc1	8.5	-1.7	-2.6	/	4.4	8.3%
CCOc1ccc(C(=O)COC(=O)CN2C(=O)NC3(CCCCC3C)C2=O)cc1 (stereo unspecified)	-2.6	4.3	-4.7	-21.0	1.1	-0.6%
CCCC(=O)N1CCC1(C)C(=O)NS(=O)(=O)c1ccc(C#N)cc1 (stereo unspecified)	-2.4	8.3	/	9.4	-0.1	1.3%
COC(=O)c1cc(OC)c(OC)cc1NC(=O)c1ccc(C)o1	-30.0	0.1	-12.1	?	1.1	0.3%[38.3 µM]
COc1ccc(C(=O)NNC(=O)c2ccncc2)cc1	5.4	-7.9	-9.4	-3.9	-0.7	-1.6%
Cc1cc(C)cc(NC(=O)c2cc(C)nc3c2c(C)nn3-c2ccccc2)c1	/	/	-10.8	/	1.1	-0.3%
COc1ccc(C2=NN(C(=O)CSc3nnc(C)c(=O)n3N)C(c3ccco3)C2)cc1 (stereo unspecified)	9.3	-4.1	-6.0	5.6	-0.6	-0.7%
Cc1cc(C)c(C)c(S(=O)(=O)N2CCN(C(=O)CCc3nc4ccccc4c(=O)[nH]3)CC2)c1C	-13.0	-3.1	-8.2	3.5	-1.0	-1.8%
COc1ccc(C(=O)NCc2nnc(SCC(=O)N3CCc4ccccc43)n2CCc2ccccc2)cc1	-15.7	0.3	-1.7	-5.0	0.0	5.4%
Cc1nc(-c2cccc(S(=O)(=O)N3CCC(C(=O)NCc4ccccc4Cl)CC3)c2)no1	/	/	-6.4	/	1.1	1.0%
COc1ccc(N2CCN(C(C)C(=O)N(C)Cc3ccccc3)CC2)cc1 (stereo unspecified)	-3.2	-3.3	-10.1	-16.3	1.2	-0.9%
CN(CCNC(=O)c1ccc(CS(=O)(=O)c2c(Cl)cccc2Cl)o1)CCc1ccccc1	-3.6	-1.0	16.3	-3.8	-0.7	-0.6%
COc1cccc(C(=O)NCCS(=O)(=O)N2CCc3ccccc3C2)c1	8.5	-5.8	12.2	-1.7	-0.3	-0.7%
Cc1csc2nc(CNC(=O)C3CC=CCC3C(=O)O)cn12 (stereo unspecified)	-2.8	-6.3	3.3	9.9	-0.2	-1.0%
CCCNC(=O)c1cccc(Br)c1	2.3	1.0	1.7	3.0	-0.5	-1.2%
CCOc1ccc(/C=N/Nc2cc(=O)n(C)c(=O)n2C)cc1	0.1	1.2	0.7	12.9	-0.4	1.1%
Cc1cc(C(=O)Cn2cnc3ccc(Cl)cc3c2=O)c(C)n1C1CC1	-8.8	-3.3	-14.6	4.6	-0.6	1.1%
COc1ccc(N2CCN(S(=O)(=O)c3cccc(C(F)(F)F)c3)CC2)cc1	-2.1	-1.5	-0.5	-1.1	1.0	-1.7%
COc1ccc2oc(C(=O)OCC(=O)NC3(C#N)CCCC3)c(C)c2c1	-0.3	8.5	7.9	2.8	0.6	-5.6%
COc1ccc(NC(=O)NCCCCc2ccccc2)c(OC)c1	-4.3	-1.4	3.5	-0.1	0.5	-0.6%
COc1ccccc1-c1nn(CCC(=O)Nc2cccc(C(C)=O)c2)c2nc(C)cc(C)c12	/	/	-7.9	/	1.8	-5.6%
Cc1c(NS(=O)(=O)c2cccc([N+](=O)[O-])c2)c(=O)n(-c2ccccc2)n1C	-18.2	-5.4	-0.9	-9.0	-0.7	0.3%
CC(NC(=O)c1ccccc1Br)c1nnc(SCC(=O)NC2CCCCC2)n1C (stereo unspecified)	2.1	7.4	-12.5	-1.2	0.3	-0.7%
Cc1ccc(NCc2ccccc2O)cc1	-14.5	0.7	10.7	-17.1	1.4	4.6%[38.3 µM]
O=C(NCC(c1ccc(F)cc1)N1CCOCC1)c1cccc(Br)c1 (stereo unspecified)	-5.8	1.1	?	-10.9	-0.3	0.2%
Cc1ccc(OC2CCN(C(=O)[C@H]3O[C@@H](n4ccc(=O)[nH]c4=O)[C@H](O)[C@@H]3O)CC2)cc1	0.1	-4.8	1.0	0.4	0.1	0.1%
CC1CC(C)CN(C(=O)COC(=O)CCCN2C(=O)c3cccc4cccc(c34)C2=O)C1 (stereo unspecified)	-10.2	-1.0	5.1	-5.8	2.2	-2.2%
CC1CCN(C(=O)c2ccc(CSc3ccc(Cl)cc3)cc2)CC1	1.6	-7.2	32.6	11.1	-0.1	5.8%
O=C(c1ccc(C(F)(F)F)cc1)N1CCN(c2ccc(N3CCOCC3)nn2)CC1	7.0	-1.7	-9.7	13.1	-0.5	-0.8%
O=C(c1cccc(-c2nnc(-c3ccccc3)o2)c1)N1CCCCC1	-4.6	3.8	1.9	-1.0	-1.6	0.5%
COc1ccc(C)cc1Nc1nc2c(S(=O)(=O)c3cc(C)ccc3C)nnn2c2ccsc12	/	/	-4.4	/	-0.5	0.9%
COc1ccc(/C=C(\C#N)C(=O)OCC(=O)Nc2ccc(-c3nc4ccc(C)cc4s3)cc2)cc1	0.0	-5.8	3.6	6.4	0.0	11.3%
Cc1ccc(S(=O)(=O)N(C)C)cc1NC(=O)COC(=O)/C(=C/c1ccc(F)cc1)c1cccs1	-8.9	-4.7	8.4	1.8	0.3	0.9%
Cc1cccc(N2CCN(C(=O)CNC(=O)Cc3ccccc3)CC2)c1C	5.6	10.0	13.2	-11.6	4.4	0.6%
CC(Sc1ccccc1F)C(=O)Nc1ccc2c(c1)OCCO2 (stereo unspecified)	-1.9	1.0	3.2	-1.0	0.0	2.0%
COCCC(=O)N1CCc2c([nH]c3ccccc23)C1C(C)(C)C (stereo unspecified)	0.1	-1.7	11.4	7.1	0.1	0.0%
O=C(O)c1cccc(S(=O)(=O)N2CCc3ccccc3C2)c1	-6.0	-3.6	-7.0	0.6	0.3	-0.5%
Cc1cc(Br)ccc1NC(=O)C1(S(=O)(=O)c2ccc(Cl)cc2)CC1	/	/	-7.2	/	4.9	3.9%
COc1ccccc1CNC(=O)CCS(=O)(=O)c1cccc2nonc12	3.3	0.7	0.2	2.3	-0.8	-4.1%
Cc1cc(C)c(/C=C/c2onc(C)c2S(=O)(=O)N2CCC(C(=O)N3CCN(c4ccc(Cl)cc4)CC3)CC2)c(C)c1	/	/	14.4	/	-0.5	1.9%
COc1ccc(NC(=O)CSc2nc3c([nH]c4ccccc43)c(=O)n2-c2ccccc2)c(OC)c1	/	/	13.0	/	2.3	-0.6%
CCN(CC)Cc1nc2c(c(=O)[nH]1)C1(CCCCC1)Cc1ccccc1-2	-1.4	-0.2	-13.9	2.1	0.0	?
CN(CC(=O)Nc1ccccc1C(F)(F)F)C(=O)CSc1nnnn1C	8.3	-2.5	2.3	4.2	0.2	-0.7%
CN(CC(=O)Nc1cccc(F)c1)CC(=O)Nc1ccc(Cl)cc1[N+](=O)[O-]	-2.4	-2.2	-7.1	-3.2	-0.1	0.7%
Oc1ccc2ccccc2c1C=Nc1ccccc1-c1nc2ccccc2[nH]1	-4.0	14.9	-1.0	-4.3	-0.9	5.2%
N/C(Cc1cccc2ccccc12)=N\OC(=O)Cc1cccs1	5.3	0.3	-4.6	0.0	2.1	13.4%
Cc1ccccc1Nc1cccc2nonc12	137.1	7.2	1.3	76.2	7.7	?
COc1ccc(CCCNC(=O)C2Cc3c(-c4cccc(NC(C)=O)c4)ccnc3O2)cc1 (stereo unspecified)	-2.8	13.0	/	11.8	-0.7	4.9%
COc1ccc(OCC(=O)Nc2cccc(S(=O)(=O)N(C)c3ccccc3)c2)c([N+](=O)[O-])c1	-0.6	1.2	14.8	6.3	0.1	7.2%
COc1ccccc1CNC(=O)C1CCC(CNC(=O)[C@@H]2Cc3ccccc3CN2)CC1 (stereo partly specified)	7.2	-1.9	-1.1	-15.4	0.0	0.8%
CCN(C(=O)c1cc2cc(OC)ccc2oc1=O)c1cccc(C)c1	-1.8	-3.0	-9.1	6.6	0.2	5.0%[38.3 µM]
CCC(C)N(C(=O)Cn1nc(C)c([N+](=O)[O-])c1C)C1CCS(=O)(=O)C1 (stereo unspecified)	-0.4	-4.2	-21.5	7.7	-0.3	1.0%

Next part.
compound	Six1-Eya2 blk	D2 agonist	TRPML1 blocker	CtBP-E1A inh	TRPML1 agonist	PINK1 modulator
CC(NC(=O)Nc1cccc(Cl)c1)C(c1cccs1)N1CCCC1 (stereo unspecified)	1.5	-5.7	-0.3	0.5	-0.4	-1.1%
O=C(NCCN1CCOCC1)c1ccc2c(c1)N(Cc1ccccc1F)C(=O)c1ccccc1S2	-1.3	-1.7	/	-0.8	/	0.8%
Cc1ccc(NCc2cccn2-c2nnc(N3CCC(C(=O)NCCc4ccc(Cl)cc4)CC3)s2)cc1	/	/	1.5	/	0.5	-0.8%
CCOc1ncccc1C(=O)OCC(=O)NCCc1ccc(OC)cc1	5.4	-0.8	4.8	7.6	1.3	-1.1%
C=CCN(C(=O)CNC(=O)c1ccco1)C(C(=O)NC1CCCCC1)c1cccnc1 (stereo unspecified)	11.9	-0.5	-1.2	20.0	-0.7	0.8%
CCOC(=O)c1ccccc1NC(=O)COC(=O)CCC(=O)c1ccc(C)cc1	15.1	-4.9	7.3	-0.6	0.4	-1.0%
O=C(CCl)N1N=C(c2cccs2)CC1c1ccco1 (stereo unspecified)	1.2	-13.4	0.6	4.4	-1.1	-0.8%
O=C(COc1ccc(F)cc1)c1c(O)cc(O)cc1O	1.0	-5.6	0.2	-1.9	-0.3	2.5%
Cc1ccn2c(Nc3ccc4c(c3)OCCO4)c(-c3ccc(Cl)s3)nc2c1	/	/	-4.9	/	0.7	-1.9%
O=C(COc1ccccc1)NCC(=O)Nc1ccc(S(=O)(=O)NCc2ccco2)cc1	-6.2	-3.1	-9.8	-5.7	-0.7	4.5%
O=C(Nc1ccc2[nH]c(=O)[nH]c2c1)c1cc(F)c(F)cc1Cl	-0.4	-3.7	-1.9	0.0	0.2	9.0%
O=C(CCSCCc1ccccn1)Nc1ccc(Cc2ccncc2)cc1	5.4	-1.7	9.9	0.4	0.1	0.5%
COc1cc(C2C(=O)N(C3CCCCC3)CC(=O)N2CCc2ccccc2)ccc1OC(C)C (stereo unspecified)	/	/	17.9	/	0.5	1.5%
CN(C)CCNS(=O)(=O)c1ccc(Cl)cc1	-1.8	-5.1	-4.1	4.1	-0.9	0.1%

Assay outcomes: PubChem, National Center for Advancing Translational Sciences (NCATS)

Hits appear at their usual frequency. Share with any hit: about 1%.
